Compound activity from PubChem BioAssay.
NPYLR7 agonist: activates Aedes aegypti NPYLR7 receptor | activation, % at 10 µM | HEK293T NPYLR7/Galpha15, GCaMP6s calcium fluorescence | 270,000 compounds, 0.15% hits; in the data active means activation above about 40%;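 further: 0% = vehicle and 100% = reference agonist at the receptor; some compounds past the cut are filed as inactive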
NPYLR7 agonist max-min: second read-out of NPYLR7 agonist, no call of its own (marks repeat the call); activation, %; measured here: Max-Min RFU normalised activation; some inactives read as strong as hits;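 span of the calcium signal over five minutes; 0% = vehicle and 100% = native peptide agonist; compound fluorescence can raise it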
Starred values were filed as active, the others as inactive.

SMILES | NPYLR7 agonist | NPYLR7 agonist max-min
CC(C)NC(=S)NN=C1CCCCC1C1CCCCC1 (stereo not given) | -3.8 | -8.9
O=C1CN(c2ccccc2)CCCN1 | -1.5 | -2.1
CCc1nc2c(OCc3ccccc3)cccn2c1N(C)C(=O)c1ccc2c(c1)OCO2 | -9.4 | 6.2
COc1cc(OC)c(C(C)=O)c(O)c1C | 13.7 | 4.1
CN(Cc1ccc(F)cc1F)C(=O)C1CCN(C(=O)c2cccs2)CC1 | 4.5 | 0.8
O=C(c1ccncn1)N1CCOc2c(O)cc(-c3cccnc3)cc2C1 | 6.0 | 5.1
CC(C)(NC(=O)CCNc1ccccc1)c1ccc(Cl)c(Cl)c1 | -2.2 | -1.9
Cc1cccc(C)c1OC1CN(CCC(=O)Nc2nccs2)C1 | 5.8 | 14.5
C=Cc1ccc(NC2CC3CCC(C2)N3C(=O)OC(C)(C)C)cc1 (stereo not given) | 6.7 | 3.5
CCC(COC)NC(=O)c1cncn1-c1cccc(-c2ccccc2C(F)(F)F)c1 (stereo not given) | 3.9 | 1.3
O=C(NC1CCC[C@H]1OCc1ccccc1)c1cncn1-c1cccc(-c2ccccc2C(F)(F)F)c1 (stereo not given in full) | 12.8 | 17.6
N#CCCNC(=O)c1ccc(-c2cc(-c3cccc(C(F)(F)F)c3)n[nH]2)cc1 | 4.4 | 0.1
O=S(=O)(NCCc1csc(-c2cnccn2)n1)NCc1ccccc1 | 3.0 | 14.3
CCC(=O)Nc1ccc(N(C)C)c(CN(Cc2cccc(F)c2)C(=O)C(C)(C)C)c1 | 4.7 | 6.5
Cc1noc(C)c1S(=O)(=O)N1CCC(Cc2nncn2C)CC1 | 16.8 | 2.3
COC(=O)c1cc(OC)cc(C(=O)N2CCCC(O)(CN(C)C)C2)c1 (stereo not given) | -1.7 | -8.6
Cc1cc(C(=O)N2CCN([C@@H]3C[C@H]4C[C@@H](c5ccccc5)OC[C@@]4(C)C3)CC2)no1 | 3.1 | 15.9
CC(C)CN1CC(C(=O)N2Cc3cnn(CCO)c3C2)CC1=O (stereo not given) | 6.6 | 5.9
COc1ccc(N=Cc2nc(-c3ccc(C)cc3)oc2O)cc1Cl | -3.0 | -4.6
CCOc1ncccc1C(=O)N1CCOC(Cc2ccccc2)C1 (stereo not given) | 16.4 | 6.2
Cc1cccc(C(=O)N2CCC(c3ccccc3C(=O)O)C2)c1C (stereo not given) | 3.1 | 0.9
Cc1nn(CC(=O)c2cc(C)n(C3CC3)c2C)c(C)c1[N+](=O)[O-] | 22.7 | 28.2
CC(=O)c1cc(-c2nc3ccccc3n2C)n(C)c1 | 18.4 | 7.9
C#CCOCC(O)CN(Cc1ccccc1F)CC1CC(c2ccccc2)=NO1 (stereo not given) | -2.3 | 6.1
CC(c1cccc(NC(=O)c2ccccc2)c1)N(C)C(=O)C1CCC1 (stereo not given) | 0.6 | 0.4

Later entries:
SMILES | NPYLR7 agonist | NPYLR7 agonist max-min
Cc1nn(C)c(C)c1CCC(=O)NCc1scnc1-c1ccccc1 | -2.7 | -3.4
Cc1cn(CCNc2nc(-c3ccccc3)nc3c2CCNC3)nn1 | 2.7 | 2.0
CC1CCCN(C(=O)Nc2ccc(CS(=O)(=O)C(C)C)cc2)C1 (stereo not given) | 8.8 | 2.6
Cc1c(CN2CCCC(CCC(=O)NCc3ccccc3Cl)C2)cnn1C (stereo not given) | 1.7 | -3.4
Cn1cc(OCc2ccc(F)cc2)c(=O)cc1C(N)=O | 2.4 | -0.6
Cc1csc(CN2CCOc3c(O)cc(-c4ccc(C)s4)cc3C2)n1 | -6.1 | -7.1
CCCNC(=O)Cn1nc2c(c1NC(=O)C1CC(=O)N(c3ccc(C)cc3)C1)CSC2 (stereo not given) | 1.2 | 11.4
CC(C)Cn1c(=O)c2ccc(C(=O)NC(C)C)cc2n2c(=O)n(CC(=O)NC(C)C)nc12 | -1.0 | -5.0
O=S(=O)(c1ccc(N2CCCN(c3nccs3)CC2)cc1)C(F)F | 16.0 | 12.5
O=C1CN(Cc2cc(-c3ccc(Cl)cc3)no2)CCN1 | -15.0 | -20.4
CC(C)(C)c1ccc2c(c1)CCN2C(=O)c1ccc2c(c1)C(=O)NC2=O | 0.4 | -2.6
Cc1nc(C(C)C)sc1C(=O)N(Cc1ccccn1)CC1CCCO1 (stereo not given) | 6.9 | 4.8
Cc1ccc2nc(C)c(NC(=O)c3ccc(S(=O)(=O)N(C)C)cc3)c(=O)n2c1 | 2.1 | 0.5
O=C(CN(C(=O)C1CCCCC1)C1CC1)Nc1nc(CC(=O)N2CCN(c3ccccc3F)CC2)cs1 | 15.1 | 18.1
Cc1cc2nc(NCCCN(C)C)sc2cc1C | -4.4 | -4.3
COc1ccc(-n2nc(C(=O)c3ccccc3)cc(C(=O)c3ccccc3)c2=N)cc1 | -2.1 | -2.7
CCc1cn[nH]c1C1CCN(C(=O)C2CC(=O)Nc3ccc(F)cc32)CC1 (stereo not given) | 1.5 | 1.9
C[C@@H]1NC(=O)N[C@@H]1CCCCCC(=O)N1CCc2ccccc2C1 | -12.1 | -21.3
Fc1ccccc1C1c2cccn2CCCN1Cc1ccccn1 (stereo not given) | 12.0 | 10.3
CCC1CCC(CNC(=O)Cc2c(C)nn(C)c2C)CC1 (stereo not given) | 26.7 | 25.0
CNc1cc(-c2cnn(CC(C)C)c2)ncn1 | 1.3 | -2.7
O=C(CCn1cccn1)N1CCOC(c2ccc(Cl)c(Cl)c2)C1 (stereo not given) | 7.5 | 3.5
CNc1cc(C(=O)N2CCC3(CCCN(Cc4cc(OC)ccc4F)C3)C2)ccn1 (stereo not given) | 15.2 | -1.6
Cc1c(CN2CCN(Cc3cccs3)C(CCO)C2)c(=O)n(-c2ccccc2)n1C (stereo not given) | 14.6 | 3.3
Cc1ccccc1Cn1ccc(NC(=O)c2nn3cccnc3c2Cl)n1 | 17.7 | 5.6

Entries of single compounds from above. Order of values: NPYLR7 agonist | NPYLR7 agonist max-min
CC(C)Cn1c(=O)c2ccc(C(=O)NC(C)C)cc2n2c(=O)n(CC(=O)NC(C)C)nc12 is listed with -1.0 | -5.0
Cc1ccc2nc(C)c(NC(=O)c3ccc(S(=O)(=O)N(C)C)cc3)c(=O)n2c1 is listed with 2.1 | 0.5

Continuation:
SMILES | NPYLR7 agonist | NPYLR7 agonist max-min
O=C1C=NC(Nc2nc3ccccc3s2)N1 (stereo not given) | 6.9 | 5.7
CCCc1cc(C(=O)N(Cc2ccncc2)Cc2ccc3c(c2)OCO3)n[nH]1 | 0.0 | -0.6
Cc1cc(C)c(NC(=O)CNC(=O)CN2Cc3ccccc3N(C)CC2C)c(C)c1 (stereo not given) | 1.8 | 16.1
O=C(CCc1nnc(-c2ccc3c(c2)OCO3)o1)N1CCN(CC2CC2)CC1 | 12.3 | 11.7
CC(C)CN(C(=O)Nc1cccc2ccccc12)C1CC1 | 7.6 | 4.3
Cc1[nH]c(=O)[nH]c(=O)c1/C=N\NC1=NCCN1 | -9.2 | -12.0
COCCNC(=O)Cn1nc2c(c1NC(=O)c1c(F)cccc1Cl)CSC2 | -4.8 | 2.1
CCN(C(=O)c1ccc(-n2ncc(C#N)c2N)cc1)C1CCCC1 | -8.1 | -10.2
Cc1sc2ncnc(N=Nc3c(O)[nH]c4ccc([N+](=O)[O-])cc34)c2c1C | 5.8 | 0.5
CN1CCCn2nc(C(=O)N3CCN(CC4CCCO4)CC3)cc2C1 (stereo not given) | 3.5 | 0.7
FC(F)(F)CCc1ccnc(N2CCNC(c3ccccc3)C2)n1 (stereo not given) | 7.6 | 0.6
O=C(CCCOc1ccccc1)N(Cc1ccco1)Cc1cc2c(cc1Cl)OCO2 | -8.7 | -14.0
COc1cc(C)ccc1S(=O)(=O)NC(=O)C1(C)CCN1C(=O)Cc1ccc(C(C)(C)C)cc1 (stereo not given) | -7.1 | -10.2
CCCSc1nnc(NC(=O)c2cccc3ccccc23)s1 | -3.0 | -9.6
Cc1cccc(C(=O)NC2CCN(c3ccccc3C(=O)N3CCN(C4CCCC4)CC3)CC2)c1 | -1.8 | 4.1
CCOc1ccc(-c2cn3c(CC(=O)N4c5ccccc5CC4C)csc3n2)cc1 (stereo not given) | -1.4 | -2.5
COc1ccc(C2=N/C(=C\C(Br)=C\c3ccccc3)C(=O)O2)cc1OC | -5.5 | -9.3
COC(=O)c1ccc(COC(=O)c2ccccc2NS(C)(=O)=O)cc1 | 6.5 | 5.7
NC(=O)C(OC(=O)C=C(C1CC1)C1CC1)C1CCOCC1 (stereo not given) | 3.2 | 5.1
COc1cc(CCNC(C)=O)c(C(=O)/C=C/c2cccc(OC)c2OC)cc1OC | 2.3 | -0.1
O=C(COc1ccccc1)NCCNc1cc(-n2cccn2)ncn1 | -5.3 | -12.7
Cc1nc2sc(C(=O)OC(C)C)c(N)c2c(C)c1C | -0.2 | -2.9
Cn1ccsc1=NC(=O)c1ccc(NC(=O)OC(C)(C)C)cc1 | 6.2 | 1.7
O=C(CCN1CCN(c2nc3ccccc3o2)CC1)Nc1ccccc1F | -4.0 | -8.7
COC(=O)CCCC(=O)N1CCC(c2nc(-c3ccc(F)c(F)c3)no2)CC1 | 6.0 | -0.4

Continued:
SMILES | NPYLR7 agonist | NPYLR7 agonist max-min
CC1CCCCN1CCCN1CC2=C(C1=O)C(c1ccc(Cl)cc1Cl)NC(=O)N2C (stereo not given) | 11.8 | 19.5
CN1C(=O)COCc2c(-c3cccc(C(N)=O)c3)cccc21 | 7.7 | 4.7
C=C1CC(C)OC(c2ccc(OC)cc2)C1 (stereo not given) | 20.2 | 9.6
CCOC(=O)Cn1c(=O)c2c(nc3n2CCCN3c2ccc(C)c(Cl)c2)n(C)c1=O | 0.2 | 5.6
CNc1cccc(-c2ccccc2CO)n1 | 3.7 | 2.9
CC1=C(C(=O)C(F)(F)F)CCC(=O)N1CCCN1CCCC1=O | 3.5 | 2.4
COCCCN(Cc1cccn1Cc1ccc(C(C)(C)C)cc1)CC(O)COCc1ccccc1 (stereo not given) | 4.5 | 6.0
O=C(Cn1nc(-c2ccco2)c2sc(N3CCCC3)nc2c1=O)N(c1ccccc1)c1ccccc1 | -3.1 | -6.6
O=C(Nc1cccnc1)c1ccc(-c2cccc3cccnc23)o1 | 9.9 | 3.7
CCCN(C)c1cc(-c2ccccc2)nc(SCc2ccc(C(=O)NCCOC)cc2)n1 | 13.6 | 13.7
CC(=O)Cn1c(=O)c2c(nc3n2CC(C)CN3Cc2ccccc2)n(C)c1=O (stereo not given) | 2.5 | -2.8
COc1ccc(Cl)cc1CN(C)C(=O)Nc1ccc(F)cc1F | 9.8 | 4.4
CCOc1ccccc1CS(=O)C(C)C(=O)Nc1ccccc1C (stereo not given) | -0.5 | -3.3
COc1ccc(CCN(Cc2ccc(C)s2)C(=O)CN(C2CCCCC2)S(=O)(=O)/C=C/c2ccccc2)cc1OC | -9.6 | -16.3
COCCN(Cc1ccccc1OS(=O)(=O)c1ccc(OC)cc1)C(=O)c1ccccc1Cl | 2.4 | 7.5
COc1ccc(C(=O)N(C)C(C)c2nccs2)cc1OC1CCN(C(C)=O)CC1 (stereo not given) | 2.1 | 0.9
NC(=O)C(=Cc1ccco1)C(N)=S | 23.2 | 14.5
CCN(CC)c1nc2ccccc2s1 | 2.0 | 1.0
CCOCCCN(CC(=O)N1CCc2sccc2C1c1ccc(Cl)cc1)C(=O)NC1CCCCC1 (stereo not given) | 1.1 | 15.0
CN(CC(=O)Nc1cccc(F)c1)CC(=O)N1CCc2ccccc21 | -6.9 | -8.8
Clc1ccc(C2=Nc3nnnn3C(c3cccs3)C2)cc1 (stereo not given) | 2.0 | -0.8

Some of the entries so far, with two lines to a compound.
Each structure is followed by: NPYLR7 agonist	NPYLR7 agonist max-min
COC(=O)CCCC(=O)N1CCC(c2nc(-c3ccc(F)c(F)c3)no2)CC1
    6.0	-0.4
CC1CCCCN1CCCN1CC2=C(C1=O)C(c1ccc(Cl)cc1Cl)NC(=O)N2C (stereo not given)
    11.8	19.5
CN1C(=O)COCc2c(-c3cccc(C(N)=O)c3)cccc21
    7.7	4.7
C=C1CC(C)OC(c2ccc(OC)cc2)C1 (stereo not given)
    20.2	9.6
CCOC(=O)Cn1c(=O)c2c(nc3n2CCCN3c2ccc(C)c(Cl)c2)n(C)c1=O
    0.2	5.6
CNc1cccc(-c2ccccc2CO)n1
    3.7	2.9
CC1=C(C(=O)C(F)(F)F)CCC(=O)N1CCCN1CCCC1=O
    3.5	2.4
COCCCN(Cc1cccn1Cc1ccc(C(C)(C)C)cc1)CC(O)COCc1ccccc1 (stereo not given)
    4.5	6.0
O=C(Cn1nc(-c2ccco2)c2sc(N3CCCC3)nc2c1=O)N(c1ccccc1)c1ccccc1
    -3.1	-6.6
O=C(Nc1cccnc1)c1ccc(-c2cccc3cccnc23)o1
    9.9	3.7
CCCN(C)c1cc(-c2ccccc2)nc(SCc2ccc(C(=O)NCCOC)cc2)n1
    13.6	13.7
CC(=O)Cn1c(=O)c2c(nc3n2CC(C)CN3Cc2ccccc2)n(C)c1=O (stereo not given)
    2.5	-2.8
COc1ccc(Cl)cc1CN(C)C(=O)Nc1ccc(F)cc1F
    9.8	4.4
CCOc1ccccc1CS(=O)C(C)C(=O)Nc1ccccc1C (stereo not given)
    -0.5	-3.3
COc1ccc(CCN(Cc2ccc(C)s2)C(=O)CN(C2CCCCC2)S(=O)(=O)/C=C/c2ccccc2)cc1OC
    -9.6	-16.3
COCCN(Cc1ccccc1OS(=O)(=O)c1ccc(OC)cc1)C(=O)c1ccccc1Cl
    2.4	7.5
COc1ccc(C(=O)N(C)C(C)c2nccs2)cc1OC1CCN(C(C)=O)CC1 (stereo not given)
    2.1	0.9
NC(=O)C(=Cc1ccco1)C(N)=S
    23.2	14.5
CCN(CC)c1nc2ccccc2s1
    2.0	1.0

An excerpt; the hit share may differ from the screen's.
